Cruzain Triton = cruzain (T. cruzi) inhibition with detergent; actives 0.43% (n = 200,000); purified cruzain, Z-FR-AMC fluorescence, 0.01% Triton; Potency, µM, inactives show max response, negative = inhibition, usual class: inhibitors; P25779; active means well fitted curve in the direction sought with a large enough effect; inconclusive means small, poorly fitted or top-dose-only effect, or another doubt; inactive means no such curve, though single readings can be large; an effect the other way counts as inactive or inconclusive;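 further: plate controls were neutral wells for no effect and buffer without enzyme for full effect; nearly all actives have a fitted effect of over 40% in size; top concentration of the series not given in the record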
Target sequence (P25779 123-467 limits assumed): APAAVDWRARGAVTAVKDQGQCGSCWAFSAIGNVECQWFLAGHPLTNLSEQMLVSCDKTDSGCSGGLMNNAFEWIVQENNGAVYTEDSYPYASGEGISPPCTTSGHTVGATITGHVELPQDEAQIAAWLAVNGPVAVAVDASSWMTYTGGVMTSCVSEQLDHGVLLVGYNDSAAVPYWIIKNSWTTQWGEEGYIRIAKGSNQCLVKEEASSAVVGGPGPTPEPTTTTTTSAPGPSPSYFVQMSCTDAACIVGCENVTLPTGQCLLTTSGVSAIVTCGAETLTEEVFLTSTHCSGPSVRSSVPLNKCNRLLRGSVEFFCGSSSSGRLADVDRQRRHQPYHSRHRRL
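In this qHTS format, compounds are incubated with 1.5 nM cruzain for 15 min at room temperature before 2 uM Z-FR-AMC is added. Release of AMC is followed at 360/450 nm, and progress is taken as the 60 s fluorescence difference.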
Cruzain noTriton = blocks cruzain activity in detergent-free assay | AID 1476 | P25779 | Potency, µM, for the others: max response, negative = inhibition, actives largely listed as inhibitors | actives 2.3% (n = 200,000) | purified cruzain, Z-FR-AMC fluorescence, no detergent; active means well fitted curve in the direction sought with a large enough effect; inconclusive means small, poorly fitted or top-dose-only effect, or another doubt; inactive means no such curve, though single readings can be large; an effect the other way counts as inactive or inconclusive;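 further: plate controls were enzyme without inhibitor for no effect and buffer without enzyme for full effect; nearly all actives have a fitted effect of over 40% in size; top concentration of the series not given in the record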
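Purified cruzain at 1.5 nM, pre-incubated 15 min with compound at room temperature in 100 mM sodium acetate pH 5.5, 5 mM DTT, 0.00005% Triton X-100. Reaction started with 2 uM Z-FR-AMC; AMC fluorescence increase over 60 s gives rate.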
NS1 function inh = inhibitors of influenza NS1 protein function | actives 0.4% (n = 270,000) | S. cerevisiae slowed by influenza A NS1, growth recovery by OD600 | Potency, µM (highest dose often 46.1 µM), for the others: at the highest dose activity, positive = more growth; further: actives are rising curves; nearly all actives have a fitted effect of over 50% in size
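In this qHTS, NS1 from influenza A is expressed in budding yeast, where it slows growth. Cells are switched from glucose to 2% galactose medium (pH 6.0, -URA), treated with compound, and growth recovery is read at OD600.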
2A StopGo = FMDV 2A StopGo reporter, luciferase signal; human cells with a luciferase reporter of 2A StopGo recoding; control for the full effect not named in the record; Potency, µM (titrated, usually from 57.9 µM), for inactives: at the highest dose signal change, negative = less light; actives 1.2% (n = 410,000); AID 1159524; active = well fitted falling curve with a large enough effect; inconclusive = small, poorly fitted or top-dose-only effect; inactive = no such curve, though single readings can be large or run the other way; tested in HEK293T cells; further: on the % scale 0 is the no-effect control and ±100 the full control effect; nearly all actives have a fitted effect of over 45% in size; luciferase light after 4 h
SARS PLpro yeast = inhibitors of SARS-CoV papain-like protease in yeast; S. cerevisiae expressing SARS-CoV PLpro, growth rescue; control for the full effect not named in the record; actives 0.19% (n = 330,000); Potency, µM (titrated, usually from 32.9 µM), without a hit: at the top dose activity, positive = growth rescue; further: 0% is about no effect; nearly all actives have a fitted effect of over 55% in size; growth read by luminescence after 48 h
Lassa entry inh = blocks Lassa virus binding to or entry into cells. Lassa virus pseudotype entry inhibition, cell reporter; control for the full effect not named in the record. Potency, µM (doses to about 37.9 µM), for inactives: at the top dose activity change, negative = inhibition, actives largely listed as inhibitors. actives 1.2% (n = 300,000); active means well fitted inhibition curve with a large enough effect; inconclusive means small, poorly fitted or top-dose-only effect, or effect the other way; inactive means flat fitted curve, though single readings scatter; tested in HEK293 cells; further: on the % scale 0 is the no-effect control and ±100 the full control effect; nearly all actives have a fitted effect of over 50% in size; luciferase read-out
RE007 growth inh = less growth of the S. pombe RE007 Vpr strain | actives 0.21% (n = 360,000) | S. pombe RE007 Vpr strain, BacTiter-Glo ATP luminescence, 24 h; control for the full effect not named in the record | Potency, µM (titrated, usually from 92.2 µM), inactives show at the highest dose activity change, negative = less growth | AID 651644; active = well fitted falling curve with a large enough effect; inconclusive = small, poorly fitted or top-dose-only effect; inactive = no such curve, though single readings can be large or run the other way;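 further: on the % scale 0 is the no-effect control and ±100 the full control effect; nearly all actives have a fitted effect of over 50% in size; the assay follows cell death caused by Vpr and the record does not say whether a fall means rescue or toxicity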
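Fission yeast strain RE007, carrying one chromosomally integrated HIV-1 vpr copy, was seeded at OD 0.01 in PMG+AL medium with 23 nL pinned compound. After 24 h at 30 °C and 99% humidity, viability was read by BacTiter-Glo luminescence.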
Marburg entry inh = blocks Marburg virus binding to or entry into cells; Marburg virus pseudotyped entry inhibition, cell reporter; control for the full effect not named in the record; about a third of the inactives were read at about 46 µM; actives 1.8% (n = 300,000); Potency, µM (doses to about 37.8 µM), inactives show at the top dose activity change, negative = inhibition, actives largely listed as inhibitors; active = well fitted inhibition curve with a large enough effect; inconclusive = small, poorly fitted or top-dose-only effect, or effect the other way; inactive = flat fitted curve, though single readings scatter; tested in HEK293 cells; about a fifth of its hits are not listed in these tables; further: on the % scale 0 is the no-effect control and ±100 the full control effect; luciferase read-out
An asterisk follows results filed as active; ? = inconclusive; nt = no result given; & = joins results of further samples; [ ] = dose if it differs, or a comment. Unless noted, the call rests on the fitted dose curve; in most records, active means well fitted rising curve with a large enough effect; inconclusive means small, poorly fitted or top-dose-only effect; inactive means no such curve, though single readings can be large or run the other way. Potency means the concentration at half of the fitted maximal effect.

SMILES	Cruzain Triton	Cruzain noTriton	NS1 function inh	2A StopGo	SARS PLpro yeast	Lassa entry inh	RE007 growth inh	Marburg entry inh
O=C(O)c1ccccc1-c1csc(-c2ccccc2)n1	nt	nt	2%	?	0%	?	-14%	?
Cc1ccc(S(=O)(=O)Nc2ccc(N=Nc3ccc(O)cc3)cc2)cc1	-10%	2%	-42%	53%[activator]	-66%	?	?	?
C=CCn1c(O)c(C(C)=NCCN2CCCCC2)c(=O)[nH]c1=O	7.7%	-3%	-4%	5%	3%	13%	13%	0%
CC12CC(O)C3c4ccc(O)cc4CCC3C1CC/C2=N\O (stereo not drawn)	nt	nt	8%	?	1%	nt	7%	nt
C=CCSc1nnc2c(n1)OC(c1cccnc1)N(C(C)=O)c1ccccc1-2 (stereo not drawn)	-2.7%	-8%	-4%	21%	-17%	3%	-13%	16%[46.1 µM]
CC(=O)N1CCN(Cc2nc3cc(NC(=O)Nc4ccccc4)ccc3n2C)CC1	nt	nt	-4%	11%	0%	nt	-16%	nt
O=C(CSc1ncn[nH]1)NCc1ccccc1	5.4%	4%	5%	12%	0%	11%	4%	2%[46.1 µM]
COc1ccc(-c2oc3ncnc(N)c3c2-c2ccccc2)cc1	-17%	8%	-4%	-6%	1%	-6%	14%	?
O=C(CCCN1C(=O)c2ccccc2C1=O)Nc1ccccc1	nt	nt	-2%	-3%	1%	0%	1%	33%
COCc1ccc(CN2CCC(n3nccc3NC(=O)CCOc3ccccc3)CC2)o1	nt	nt	3%	-22%	10%	2%	-3%	21%
CCOC(=O)c1c(SCC(=O)Nc2nc3ccc(C)cc3s2)nc(=O)[nH]c1C	-1.0%	16%	nt	2%	nt	-1%[46.1 µM]	nt	nt
COCCCNC(=O)c1ccc(Cn2c(=O)c3ccccc3n(Cc3ccccc3C)c2=O)cc1	-3.8%&-1.5%	?	9%	-3%&-15%	-6%	-28%[46.1 µM]	47%	?
C/C(CCc1oc2ccc(Cl)cc2c1-c1ccc(C)o1)=N\O	-8.3%	-10%	-21%	-14%	-15%	-13%	-26%	-21%
CCc1ccc(NCc2cc3ccc(OC)cc3n(CC(=O)Nc3c(C)cc(C)cc3C)c2=O)cc1	-1.8%	3%	nt	-1%	nt	6%[46.1 µM]	nt	nt
CN(C)/C=N/c1ncc(-c2ncc(C(F)(F)F)cc2Cl)cn1	nt	nt	1%	37%[activator]	2%	-19%	-14%	6%[46.1 µM]
Cc1ccccc1NC(=O)CSc1nnc(Cc2ccccc2)o1	2.2%	4%	1%	21%	11%	-1%	8%	9%
CCOC(=O)C1CCCN(C(=O)c2cncc(Br)c2)C1 (stereo not drawn)	3.6%	4%	3%	-7%	-18%	8%	0%	2%
COC(=O)CCn1[nH]c(=O)c2ccccc2c1=O	2.6%	8%	3%	3%	-9%	0%	1%	?
O=C(Nc1ccc2oc(=O)ccc2c1)c1ccc2ccccc2c1	nt	nt	6%	-9%	-9%	-4%	-18%	-10%[46.1 µM]
COC(=O)C1CCN(C(=O)c2ccc(Cl)c(S(=O)(=O)NCc3ccco3)c2)CC1	nt	nt	nt	24%	1%	-12%	-9%	4%
Cc1cccc(NC(=S)N(CCN2CCOCC2)Cc2cc3cc4c(cc3[nH]c2=O)OCCO4)c1	nt	nt	-2%	-2%	-1%	nt	-7%	nt
CCOC(=O)C1=C(COC(=O)[C@@H]2CCCN2S(=O)(=O)c2ccc(C)cc2)NC(=O)NC1C (stereo partly drawn)	nt	nt	13%	-11%	-1%	-4%	-25%	3%
CC(=O)c1cc(CN2CCN(Cc3ccc(C)cc3)C(CCO)C2)cs1 (stereo not drawn)	nt	nt	8%	-9%	1%	nt	-15%	nt
COC(=O)c1cccc(NC(=O)CSc2nnc(C)n2C)c1	nt	nt	-1%	-13%	0%	17%[46.1 µM]	-2%	?
O=C(c1ccccc1)c1ccccc1NC(=O)C1CCCN1Cc1ccccc1 (stereo not drawn)	nt	nt	-10%	-6%	-1%	nt	8%	nt
CCOc1ccc(CN(C)C(=O)c2ccc(NS(=O)(=O)c3ccc4[nH]c(=O)[nH]c4c3)cc2)cc1	nt	nt	nt	-16%	2%	9%	3%	3%
COc1ccccc1NC(=S)N1CCN(C(=O)c2ccco2)CC1	3.8%	9%	-5%	-17%	0%	15%	4%	20%
Cc1ccccc1OCC(=O)Nc1nnc(-c2ccco2)s1	nt	nt	1%	9%	1%	20%	1%	-25%
O=C(O)c1ccc2oc(=O)c(S(=O)(=O)c3ccc(F)cc3)cc2c1	nt	nt	0%	-15%	0%	-21%[46.1 µM]	-8%	20%[46.1 µM]
O=C1CC2(CCCCC2)CC(=O)N1CCc1ccccc1	nt	nt	nt	32%[activator]	nt	21%[46.1 µM]	12%	26%[46.1 µM]
NC(=O)COc1ccc(/C=N/NS(=O)(=O)c2ccccc2)cc1	nt	nt	3%	86%[activator]	1%	-6%	36%	1%[46.1 µM]
O=C1NC(=O)C2(CCCc3ccc(N(CCCl)CCCl)cc32)N1 (stereo not drawn)	nt	nt	nt	-23%	nt	?	15%	nt
Cc1ccc(C(C(=O)NC2CCCCC2)N2CCC3(CC2)OCCO3)cc1 (stereo not drawn)	4.8%	8%	-5%	29%	4%	2%	-10%	?
CCC1(C)CC(=O)c2c(ccc3oc(C(=O)Nc4ccc(C(C)=O)cc4)c(C)c23)O1 (stereo not drawn)	-5.6%	-1%	nt	-21%	nt	-16%[46.1 µM]	nt	?
CC(C)c1ccc(NC(=O)c2cc(S(=O)(=O)N3CCCCC3)c[nH]2)cc1	nt	nt	-3%	-6%	7%	nt	-6%	nt
Cc1nn(C(C)C(=O)NCCC2=CCCCC2)c(=O)c2nn(-c3ccccc3)c(C)c12 (stereo not drawn)	nt	nt	-3%	-19%	1%	nt	-6%	nt
CN(Cc1ccccc1)C(=O)c1cc(-c2cccc(Cl)c2)on1	-10%	-3%	nt	43%[activator]	nt	-22%[46.1 µM]	nt	-1%[46.1 µM]
S=C(Nc1cc(Cl)cc(Cl)c1)N1CCN(c2ccccn2)CC1	nt	nt	-4%	5%	-1%	?	-19%	?
CC1CCN(C(=O)CSc2nnc(-c3ccccc3)o2)CC1	-1.5%	10%	nt	54%[activator]	nt	?	nt	17%[46.1 µM]
Cc1ccc(C)c(CSc2ncccc2C(=O)O)c1	-2.1%	4%	-22%	-28%	?	14%	0%	0%
CCc1nnc(NC(=O)CSc2nnc(CNC(=O)c3ccc(OC)c(OC)c3)o2)s1	nt	nt	-2%	-22%	1%	11%	12%	5%
CCNC(=O)CN(C1CCCCC1)S(C)(=O)=O	-2.1%	6%	2%	-10%	-3%	-11%	0%	?
COc1ccc(N(C(=O)c2ccccc2C)S(=O)(=O)c2ccc3c(c2)n(C)c(=O)n3C)cc1	0.5%	-2%	nt	-19%	nt	-8%[46.1 µM]	nt	?
O=C(C1CC1)N1CCN=C1SCc1ccc(Cl)cc1	5.8%	-3%	-50%	-21%	-1%	?	-10%	?
Cc1ccccc1NC(=O)N(C(C)C)C(C)C	4.9%	-5%	1%	-17%	5%	-2%	-12%	1%
Cc1ccc(S(=O)(=O)N2CCC(C(=O)NCC3CCCO3)CC2)cc1 (stereo not drawn)	2.7%	4%	-3%	9%	1%	1%	-9%	9%
O=C(COC(=O)CNC(=O)c1ccccc1F)Nc1ccc(Cl)cn1	nt	nt	nt	-3%	-5%	9%	-8%	-6%
CC(SC1=NCCS1)C(=O)Nc1nnc(-c2ccc(Cl)cc2)s1 (stereo not drawn)	-8.2%	-16%	0%	-13%	3%	nt	-1%	nt
O=C(c1ccccc1)N1CCN(CCc2ccccn2)CC1	0.1%	11%	-11%	-4%&-7%	-4%	13%	14%	-12%&10%[46.1 µM]
COc1ccc(C(CNC(=O)CCc2ccsc2)N(C)C)cc1 (stereo not drawn)	nt	nt	10%	-2%	0%	11%[46.1 µM]	4%	?
O=C(c1ccc(Cl)cc1)c1cnc2ccccn12	-2.8%	-10%	-16%	0%	2%	-20%	-9%	-5%
O=c1c2ccccc2nc(/C=C/c2ccc([N+](=O)[O-])cc2)n1CCCO	-7.6%	?	-18%	-29%	-7%	?	20%	?
COCCNC(=O)c1ccccc1NS(=O)(=O)c1ccc(Br)s1	-0.3%	6%	-10%	-13%	-23%	28%	6%	-2%
C/C(=N\NC(=O)c1ccc(O)cc1)c1cc2ccccc2o1	nt	nt	nt	49%[activator]	1%	nt	5%	-1%[46.1 µM]
NS(=O)(=O)c1cccc(NC(=O)CC(NC(=O)c2ccccc2Cl)c2ccccc2)c1 (stereo not drawn)	nt	nt	-4%	0%	-1%	-2%	-4%	15%[46.1 µM]
O=C(c1cc2c(s1)CCC2)N1C(=O)c2ccccc2S1(=O)=O	-4.7%	-6%	-3%	-19%	2%	4%	-26%	4%
O=C(c1ccco1)N1CCN(CC(O)COc2ccc3oc4ccccc4c3c2)CC1 (stereo not drawn)	-5.1%	18%	-38%	nt	0%	?	3%	-14%
CCCc1nn2c(=O)cc(COC(=O)c3cccc(NC(=O)COc4ccc(F)cc4)c3)nc2s1	0.0%	-2%	nt	-12%	nt	15%[46.1 µM]	nt	nt
O=C(Cc1ccc(Cl)cc1)NCCc1cnc[nH]1	nt	nt	2%	-11%	0%	22%[46.1 µM]	-5%	-1%[46.1 µM]
COc1cccc(CC(=O)Nc2c(C(=O)N3CCN(c4ccccc4F)CC3)oc3ccccc23)c1	-5.6%	?	nt	43%[activator]	nt	-13%[46.1 µM]	nt	3%[46.1 µM]
Following part
SMILES	Cruzain Triton	Cruzain noTriton	NS1 function inh	2A StopGo	SARS PLpro yeast	Lassa entry inh	RE007 growth inh	Marburg entry inh
CCCCc1ccc(S(=O)(=O)Nc2nnc(C)s2)cc1	nt	nt	-86%	-4%	-23%	nt	5%	nt
O=C(O)CCNc1nc(-c2ccccc2)nc2ccccc12	0.4%	-7%	-5%	-12%	-1%	15%	-2%	?
O=C(Cc1ccc(F)cc1)Nc1cccc(-c2cn3c(n2)SCC3)c1	nt	nt	nt	5%	3%	-14%	-5%	7%
CN1CCN(C(CNC(=O)c2c(F)cccc2F)c2ccc3c(c2)OCO3)CC1 (stereo not drawn)	-2.6%	-15%	nt	4%	nt	3%[46.1 µM]	nt	nt
O=c1[nH]c2sc3c(c2c(=O)n1Cc1ccccc1)CCC3	-8.7%	-4%	-4%	1%	0%	14%	0%	5%

Assay outcomes as filed in PubChem.
